# Screening data from PubChem BioAssay.
# WNV protease inh = inhibitors of WNV NS2B-NS3 protease, primary screen, biochemical, fluorogenic substrate; fluorogenic substrate Ex360/Em465; stronger effect = lower value; AID 577, 2007; hit rate 0.18% among 65,000; z-score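 (tested at a level between 10 and 100 µM)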;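 active = z-score at -3 or under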;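 note: score is relative to mean and spread of the compound wells of a plate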
# Target sequence (P06935 1371-1501 limits assumed): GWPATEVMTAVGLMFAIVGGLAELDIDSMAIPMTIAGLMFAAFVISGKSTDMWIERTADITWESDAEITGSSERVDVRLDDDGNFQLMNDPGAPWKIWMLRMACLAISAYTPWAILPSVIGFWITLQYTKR
# Target sequence (P06935 1502-1679 limits assumed): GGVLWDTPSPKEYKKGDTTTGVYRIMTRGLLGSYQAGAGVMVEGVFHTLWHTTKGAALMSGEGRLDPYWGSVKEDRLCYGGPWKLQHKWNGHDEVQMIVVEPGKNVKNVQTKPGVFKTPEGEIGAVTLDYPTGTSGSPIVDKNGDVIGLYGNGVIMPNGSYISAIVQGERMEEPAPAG
# MT1-MMP reporter = inhibitors of MT1-MMP promoter transcription, cell-based, luciferase reporter, luminescence (AID 618). hit rate 0.62% among 87,000. MT1-MMP promoter luciferase reporter cells, luminescence. calls from a first round at 10 µM; hits with a dose series show EC50 in µM;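 active = over half of the reporter light lost at 10 µM or EC50 under 50 µM; inactive = the rest and hits that failed the dose series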;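 note: actives suppress MT1-MMP promoter-driven transcription so potencies describe inhibitors; HT1080 fibrosarcoma cells; overnight exposure; toxic or luciferase-blocking compounds were not removed from the actives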
# Hsc70 = Hsc70 inhibitors, probe displacement, primary screen, biochemical, fluorescence polarization (AID 568) | displacement, % at 20 µM, or IC50 in µM where a hit was titrated | Hsc70 fluorescence polarization, probe displacement; higher % means a stronger effect; strong numbers were not always called active | 83,000 tested, under 10 active;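 active = displacement above 50% without optical interference and an IC50 on retest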;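 note: ATPase domain with a fluorescein-tagged ATP probe; 0% = vehicle and 100% = excess ADP; read after one hour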
# Active calls of the source: *; i = inactive; . = not tested or not shown. Compounds were not picked by outcome; about 0.8% have a hit in one of these screens.
molecule | WNV protease inh | MT1-MMP reporter | Hsc70
O=C(CSc1nnc(-c2ccncc2)n1C1CCCCC1)Nc1ccccc1 | 0.13 | i | 2.2%
CCN(CC)CCCN1C(=O)C(=O)/C(=C(/O)c2ccc3c(c2)OCCO3)C1c1ccc(C)o1 (stereo not given) | 0.68 | i | -1.6%
Cc1ccc(NC(=O)C2CCN(S(=O)(=O)c3cccc4nonc34)CC2)nc1 | -4.8* | i | -1.1%
Nc1nc(SCc2ccc(Cl)cc2)[nH]c(=O)c1-c1ccccc1 | . | i | -1.8%
CCOc1ccc2[nH]c(=O)c(CN(Cc3cccnc3)C(=O)Nc3ccccc3OC)cc2c1 | 0.95 | i | 6.0%
CC(=O)c1cc(F)c(N2CCN(C(=O)c3ccco3)CC2)cc1C | 0.77 | i | 0.9%
COc1ccc(N(CC(=O)Nc2cccc(C)c2)S(=O)(=O)c2c(C)n[nH]c2C)cc1 | -0.54 | i | 0.5%
O=C1C2ON(c3ccccc3)C(c3ccncc3)C2C(=O)N1c1ccc(N2CCOCC2)cc1 (stereo not given) | 1.1 | i | -1.9%
O=C(c1ccco1)[C@@H]1[C@@H]2C(=O)N(c3ccccc3)C(=O)[C@@H]2C2c3ccccc3C=CN21 (stereo not given in full) | 0.45 | i | 59%
CCCCN(CC)Cc1ccc(CNC(=O)Nc2ccccc2)o1 | . | i | -1.8%
C(=C1/CCCC2=C1Nc1ncnn1C2c1ccccc1)/c1ccccc1 (stereo not given) | . | i | -2.4%
CCOC(=O)C(NCc1ccccc1OC)(NC(C)=O)C(F)(F)F (stereo not given) | 1.1 | i | -3.7%
CCN(CC(=O)NCc1cccs1)c1nnnn1-c1ccccc1 | -0.76 | i | 3.3%
Cc1cc(C)n2ncc(C(=O)Nc3ccc4c(c3)OCO4)c2n1 | -1.1 | i | 0.0%
Cn1c(C(=O)NCCCN2CCOCC2)cc2c(=O)n(C)c3ccccc3c21 | 0.65 | i | -1.8%
CC(=O)N1CCN(CCN=CC2=C(O)CC(C)(C)CC2=O)CC1 | -1.2 | i | 5.1%
Fc1ccc(-c2n[nH]c(=S)n2CC2CCCO2)cc1 (stereo not given) | . | i | 2.6%
O=C(c1ccc(S(=O)(=O)N2CCCCC2)cc1)N1CCN(c2ccccc2)CC1 | 0.2 | i | 3.6%
CN(C)C(=O)CN(c1ccc(F)c(Cl)c1)S(C)(=O)=O | -0.42 | i | -5.5%
NC(=O)c1noc(C(=O)N(CC(=O)NC2CCCC2)Cc2ccc3c(c2)OCO3)c1N | . | i | 6.9%
CCCCN(CC)CCCNC(=O)CC1Oc2ccccc2NC1=O (stereo not given) | 0.28 | i | 3.0%
O=C1COc2ccc(C(=O)CSc3nnc(Cc4cccs4)n3-c3ccc(Cl)cc3)cc2N1 | . | i | 0.7%
COc1cccc(NC(=O)c2oc3ccccc3c2NC(=O)C(C)(C)C)c1 | -0.66 | i | -3.0%
COc1cccc(CNC(=O)CCS(=O)(=O)c2cccc3nonc23)c1 | 1.3 | i | -2.2%
Cc1ccc(C)c(S(=O)(=O)NCc2cccnc2)c1 | -0.47 | i | -7.3%
CCOC(=O)N1CCC(NC(=O)C(CC(C)C)NC(=O)C2CCC(C)CC2)CC1 (stereo not given) | . | i | 3.5%
CCOC(=O)C1=NNC(C(=O)c2ccccc2)C1c1ccc(OC)cc1 (stereo not given) | . | i | -3.5%
COc1ccccc1NC(=O)c1nnn(Cc2ccccc2)c1NC(C)=O | 0.55 | i | -5.3%
Cc1ccc(SCCC(=O)N2CCOCC2)cc1 | -0.22 | i | -2.6%
N#CC1=C2Sc3ccccc3N2CCCC1=O | 1.1 | i | -0.6%
COc1ccc(N2CCN(C(=O)CSc3nnc(-c4cccnc4)n3-c3ccc(F)cc3)CC2)cc1 | . | i | 4.6%
O=C1CC(N2CCOCC2)C(=O)N1c1ccc2c(c1)OCO2 (stereo not given) | 0.93 | i | -1.7%
O=C(CCc1ccccc1O)N/N=C/c1ccc(Sc2cccc3cccnc23)o1 | . | i | 1.5%
CCn1c2ccccc2c2cc(NC(=O)COC(=O)Cc3cn4ccsc4n3)ccc21 | 1.1 | i | 2.9%
Cc1ccc2cc(C#N)c(SCC(=O)NCc3ccco3)nc2c1 | -1.5 | i | -12%
CCOc1ccc(C2=Nn3c(nnc3-c3ccco3)SC2)cc1 | . | i | 3.5%
CC(C)OC(=O)CSc1nnc(Cc2ccccc2)n1CC1CCCO1 (stereo not given) | . | i | -4.2%
CCOC(=O)Cc1csc(NC(=O)CSc2nncn2C)n1 | . | i | 0.3%
CCOC(=O)c1ccccc1NC(=O)Cn1cnc2c(nnn2-c2ccc(C)cc2)c1=O | 1.1 | i | -0.3%
O=C(c1ccco1)N1CCN(S(=O)(=O)c2ccc(S(=O)(=O)NC3CCCC3)cc2)CC1 | 0.52 | i | -8.3%
O=C(Nc1c(Cl)cc(Cl)cc1C(=O)NCCN1CCOCC1)c1ccc(Cl)cc1Cl | . | i | -4.0%
Cn1c(/C(C#N)=C(\O)COc2ccc3ccccc3c2)nc2ccccc21 | -0.43 | i | -20%
CC1CCCN(CC(=O)Nc2ccc(S(=O)(=O)NC3CCCCC3)cc2)C1 (stereo not given) | 0.05 | i | 0.2%
COc1ccc(C2=NCC(CSc3nccc(=O)[nH]3)S2)cc1 (stereo not given) | 0.55 | i | -4.6%
Cn1c(SCc2nc(-c3ccc(Cl)cc3)no2)nnc1-c1ccccc1 | . | i | 4.5%
O=C(CN(CC1CCCO1)C(=O)CNS(=O)(=O)c1ccc(Cl)cc1)NCC1CCCO1 (stereo not given) | . | i | -1.3%
COc1cc(C2NC(=O)NC(C)=C2C(=O)Nc2cccc(C)c2C)cc(OC)c1OC (stereo not given) | 0.6 | i | -4.9%
Cc1cc(NCCN2CCOCC2)n2nc(C)c(-c3ccccc3)c2n1 | 0.12 | i | -2.0%
CCS(=O)(=O)Nc1ccc(-c2nnc(SCC(=O)c3cccc(OC)c3)o2)cc1 | -0.79 | i | 0.5%
CCOc1ccc(C2NC(=O)c3n[nH]c(C)c32)cc1 (stereo not given) | -0.58 | i | 4.1%
COc1ccc(NS(=O)(=O)c2ccc(C)c(C(=O)O)c2)cc1 | -0.51 | i | -1.7%
CC(C)N(C(=O)COC(=O)c1cc(Cl)cc(Cl)c1N)C(C)C | . | i | -5.2%
COc1ccc(CCN2C(=O)c3ccccc3C2(O)c2ncc[nH]2)cc1OC (stereo not given) | -1.9 | i | 8.8%
COC(=O)c1[nH]c2cccc(OC)c2c1NC(=O)CCN1CCN(c2ccccc2OC)CC1 | -0.43 | i | -1.4%
CCc1nnc(NC(=O)CCC(=O)N2CCCC2)s1 | -1.5 | i | -5.8%
O=c1c2[nH]c3ccccc3c2ncn1CCN1CCCCC1 | -0.34 | i | -6.8%
O=C(NCc1ccccn1)Nc1ccc(Cl)c(Cl)c1 | -0.07 | i | -2.9%
O=C(OCCOCCN=C1NS(=O)(=O)c2ccccc21)c1ccncc1 | 0.15 | i | -4.8%
COc1ccccc1C(=O)N(Cc1cccs1)C1CCS(=O)(=O)C1 (stereo not given) | 0.63 | i | 2.6%
C=CCc1cc(C)cc(C)c1OCCn1cncn1 | 1.4 | i | 1.9%

# Next structures.
molecule | WNV protease inh | MT1-MMP reporter | Hsc70
Cc1cc(C(=O)OCC(=O)Nc2ncc(C(F)(F)F)cc2Cl)c(C)o1 | -0.13 | i | 5.8%
Nc1ncnc2c1CCC2 | 0.29 | i | -1.0%
Cc1cccn2c(=O)c3cc(C#N)c(=O)n(-c4c(C)n(C)n(-c5ccccc5)c4=O)c3nc12 | -0.03 | i | -7.5%
O=C(CSc1nc2cc(S(=O)(=O)N3CCOCC3)ccc2o1)NC1CCCc2ccccc21 (stereo not given) | -0.18 | i | 6.6%
CCOc1cc(C(=O)N(C)Cc2cc3ccccc3[nH]c2=O)cc(OCC)c1OCC | -0.31 | i | 5.7%
CCCc1[nH]nc2c1C(c1cc(OC)cc(OC)c1)C(C#N)=C(N)O2 (stereo not given) | 0.53 | i | -0.9%
COC(=O)Cn1ccc(N(C)C)c(C#N)c1=O | -0.84 | i | -4.9%
CCn1nnnc1SCC(=O)NCc1ccc2c(c1)OCO2 | . | i | -4.2%
Cc1cc(C)nc(Nc2ccccc2Br)n1 | -1.1 | i | 2.0%
CC(=O)Nc1ccc2c(c1)OCCO2 | . | i | 0.6%
O=C1CCc2cc(S(=O)(=O)N3CCC(C(=O)NC4CCCC4)CC3)ccc2N1 | 0.31 | i | -3.7%
CC(C)OC(=O)CSc1nnc(-c2cnccn2)n1Cc1ccco1 | -0.08 | i | -2.4%

# The list goes on.
# Values run as follows: WNV protease inh	MT1-MMP reporter	Hsc70
- Cc1cccn2c(=O)c(C=NCc3ccccc3)c(NCCO)nc12
→ -0.11	i	3.7%
- CCc1cc(C(=O)OC)c(N2C(=O)C3C4C=CC(C4)C3C2=O)s1 (stereo not given)
→ -2.8	i	-2.2%
- COc1ccc(C(=O)OCC(=O)Nc2ccc(F)c(F)c2F)cc1OC
→ .	i	-1.1%
- COc1ccccc1N(CC(=O)N1CCCCC1)S(=O)(=O)c1ccccc1
→ -0.46	i	-3.2%
- CCOc1ccc(C2c3c(oc4ccccc4c3=O)C(=O)N2c2ccc(C)cn2)cc1OC (stereo not given)
→ 0.35	i	-2.3%
- CCOC(=O)c1ccccc1NC(=O)CN1C(=O)c2ccccc2S1(=O)=O
→ 0.98	i	-2.6%
- CCCC[N+](C)(C)CCC(=O)NC(C)(C)CS(=O)(=O)[O-]
→ .	i	0.5%
- O=C(O)C1CC=CCC1C(=O)Nc1cc(Cl)ccc1Cl (stereo not given)
→ 0.72	i	-3.1%
- COC(=O)c1sccc1NC(=O)Cn1nnc(-c2ccc(C)cc2)n1
→ -0.21	i	5.7%
- Cc1cc(Cl)ccc1NC(=O)CSc1nnc(Cc2cccs2)n1Cc1ccco1
→ -0.48	i	-0.8%
- CCCC1=C(C(=O)OCC)C(c2ccc(N(C)C)cc2)n2ncnc2N1 (stereo not given)
→ -0.43	i	-11%
- CN(C1CCS(=O)(=O)C1)S(=O)(=O)c1ccc(C2CCCCC2)cc1 (stereo not given)
→ -0.9	i	10%
- CCOc1ccc(N(CC(=O)NCc2ccccc2OC)S(C)(=O)=O)cc1
→ -1.1	i	2.3%
- O=C(Nn1cnnc1)C(Sc1ccccc1)c1ccccc1 (stereo not given)
→ 0.84	i	3.1%
- CC(C)COc1ccc(C2NC(=O)NC2=O)cc1 (stereo not given)
→ -0.67	i	2.4%
- Cc1csc(NC(=O)c2ccoc2C)n1
→ -0.08	i	1.0%
- CCCc1n[nH]c2c1/C(=N/O)CC(c1ccccc1)C2 (stereo not given)
→ 0.57	i	-4.8%
- COC(=O)c1ccc(N2C(=O)CC(NCc3ccccc3)C2=O)cc1 (stereo not given)
→ -0.22	i	1.8%
- COC(=O)Nc1c(C)nn(Cc2ccccc2C)c1C
→ -0.69	i	-0.3%
- O=C(Nc1ccc(N2CCOCC2)cc1)c1cc2ccccc2o1
→ 0.64	i	-3.1%
- Cc1cc(=O)n2nc(N3CCCC3C(=O)NCc3ccccn3)sc2n1 (stereo not given)
→ -0.83	i	-9.0%
- Cc1cc2c(cc1C)CSC(c1ccc3ccccc3c1O)SC2
→ .	i	-0.6%
- Cc1ccc(S(=O)(=O)Oc2ccccc2/C=N/NC(=O)c2c(Cl)cnn2C)cc1
→ .	i	-0.2%
- O=C(CN1C(=O)C2CC=CCC2C1=O)Nc1nccs1 (stereo not given)
→ 0.14	i	-1.7%
- CS(=O)(=O)N(CC(=O)NCCSc1ccccc1)c1ccc2c(c1)OCO2
→ 0.62	i	-1.8%
- O=C(C1CCC(CNc2c(N3CCCCC3)c(=O)c2=O)CC1)N1CCc2ccccc2C1 (stereo not given)
→ 0.22	i	3.9%
- CN(C)S(=O)(=O)c1ccc(C(=O)OCCCN=C2NS(=O)(=O)c3ccccc32)cc1
→ 0.67	i	1.0%
- NC(=O)C1CCCN(S(=O)(=O)c2ccc(Br)cc2)C1 (stereo not given)
→ 0.89	i	-4.9%
- CC(=O)Nc1cccc(C(=O)Nc2ccccc2C(=O)O)c1
→ -0.13	i	3.0%
- COc1cc(C(=O)OC(C)C(=O)N2CCc3ccccc3C2)ccc1OCC(=O)N1CCOCC1 (stereo not given)
→ 0.86	i	-3.4%
